Screening data: PubChem BioAssay, National Center for Advancing Translational Sciences (NCATS)
FEN1 inh: human FEN1 inhibition; P39748; Recombinant FEN1 flap cleavage, fluorescence, 15 min; Potency, µM (doses to about 114 µM), for inactives: at the highest dose activity change, negative = inhibition, usual class: inhibitors; 390,000 tested, 0.35% active; AID 588795; further: nearly all actives have a fitted effect of over 65% in size
Target sequence (P39748 whole entry, looked up): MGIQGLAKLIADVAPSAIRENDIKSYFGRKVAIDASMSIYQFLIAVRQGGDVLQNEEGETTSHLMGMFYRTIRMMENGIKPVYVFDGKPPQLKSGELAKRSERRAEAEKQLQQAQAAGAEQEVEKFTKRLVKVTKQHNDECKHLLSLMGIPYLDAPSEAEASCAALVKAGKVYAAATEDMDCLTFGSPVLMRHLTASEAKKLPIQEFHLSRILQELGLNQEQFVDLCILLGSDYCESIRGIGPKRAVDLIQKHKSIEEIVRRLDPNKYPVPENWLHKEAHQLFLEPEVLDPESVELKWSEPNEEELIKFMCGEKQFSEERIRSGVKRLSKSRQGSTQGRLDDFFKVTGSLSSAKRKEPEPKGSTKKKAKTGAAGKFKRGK
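FEN1 at 10 nM, compound pretreatment for 15 min (room temperature), 50 nM final substrate to initiate; endpoint reads at 0 and 15 min; DMSO-only plates used as vehicle background.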
N370S GC: inhibits or activates N370S mutant glucocerebrosidase | P04062 | N370S GC spleen homogenate, 4MU-glucoside fluorescence | Potency, µM (doses to about 59.4 µM), inactives show top-dose activity change, negative = inhibition, actives largely listed as inhibitors | 330,000 tested, 0.092% active | AID 2101;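 further: 0% = full enzyme activity and -100% = no enzyme basal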
Numbers without * were called inactive; u = inconclusive; x = not tested or not shown; & = joins results of further samples; [ ] = another dose, or the depositor's remark. The call rests on the fitted dose curve; in most records, active means well fitted curve in the direction sought with a large enough effect; inconclusive means small, poorly fitted or top-dose-only effect, or another doubt; inactive means no such curve, though single readings can be large; an effect the other way counts as inactive or inconclusive. Unless noted, on the % scale 0 is the no-effect control and ±100 the full control effect; potency means the concentration at half of the fitted maximal effect. Only part of the results is shown, and most or all hits are left out here.

SMILES | FEN1 inh | N370S GC
CCN(CC)S(=O)(=O)c1ccc(NC(=O)c2c(C)oc3ncnc(N4CCOCC4)c23)cc1 | 0% | x
COc1ccccc1CC(=O)Nc1ccc(S(=O)(=O)N(C)C2CCN(C)CC2)cc1 | -10% | x
CN(CC(=O)Nc1ccc(Cl)c(C(F)(F)F)c1)C(=O)Cc1n[nH]c(=O)c2ccccc12 | 7% | -6%
CC1CCCN(CCC(=O)c2ccc(Br)cc2)C1 (stereo not given) | -16% | 0%
CCNc1nc(Cl)nc(-c2cn(-c3ccccc3)c3ccccc23)n1 | 9% | 23%
CC1(C)C2CCC1(CS(=O)(=O)N1CCN(c3ccccc3F)CC1)C(=O)C2 (stereo not given) | 9% | -1%
C=CCn1c(SCc2c(C)noc2C)nc2sc3c(c2c1=O)CCCCC3 | -17% | 30%
COc1ccccc1C(CNC(=O)c1cccc(NS(=O)(=O)c2ccc(C)c(F)c2)c1)N1CCCC1 (stereo not given) | 6% | -3%
O=C(N/N=C/c1ccncc1)c1cccc([N+](=O)[O-])c1 | x | 5%
CCOC(=O)n1c(=O)n(Cc2ccccc2)c2ccccc21 | 2% | 5%
CC(=O)O[C@H]1C(=O)[C@@]2(C)[C@H]([C@H](OC(=O)c3ccccc3)[C@]3(O)C[C@H](OC(=O)[C@H](O)[C@@H](NC(=O)c4ccccc4)c4ccccc4)C(C)=C1C3(C)C)[C@]1(OC(C)=O)CO[C@@H]1C[C@@H]2O | 14%&-17% | -5%&-9%
CCN(CC)CCn1c(NS(=O)(=O)c2ccc(C)cc2)nc2ccccc21 | 3% | x
Nc1nc(N2CCN(Cc3ccccc3)CC2)n[nH]1 | -17% | -1%
CCc1nc2ccc(C(=O)NCc3ccco3)cc2nc1CC | -3% | 8%
Cc1ccc(C2=NNC(=O)C(c3c[nH]c4ccccc34)C2)cc1 (stereo not given) | -3% | -14%
O=C(O)c1ccccc1CSc1ccccn1 | -1% | -6%
COc1ccc(-c2cc(=O)c3c(O)c(OC)c(O)cc3o2)cc1 | -6% | -5%
FC(F)(F)c1cccc(Nc2nc(N3CCCC3)nc(N3CCCC3)n2)c1 | 1% | -2%
COc1cc(SC)ccc1C(=O)Nc1nccs1 | -25% | -5%
Cc1ccc(S(=O)(=O)N2CCOCC2)cc1NC(=O)COC(=O)CNC(=O)c1ccccc1 | 14% | 0%
CCN(C(=O)c1cnc(N2CCN(c3ncccn3)CC2)c2ccccc12)c1cccc(Cl)c1 | 10% | 7%
CCOc1ccc(Br)cc1S(=O)(=O)N1CC(C)OC(C)C1 (stereo not given) | -6% | 2%
CCCS(=O)(=O)N1CCN(C2CCC(C)CC2)CC1 (stereo not given) | 0% | -1%
CCOC(=O)c1c(C)sc2c1N(C(=O)CN1CCOCC1)c1cc(Cl)ccc1S2 | -2% | 5%
CCOc1ccc2nc(SCC(=O)Nc3cc(C)on3)c(C)cc2c1 | -7% | -2%

Further entries follow:
SMILES | FEN1 inh | N370S GC
O=c1[nH]c(=O)c2ccccc2o1 | 3% | x
COC(=O)Nc1nc2ccc(Br)cc2s1 | 0% | -1%
COc1ccc(OCC(=O)NNC(=O)C2CCCO2)cc1 (stereo not given) | 0% | -11%
CCN1CCN(C(=O)c2ccc3c(c2)N(Cc2c(F)cccc2Cl)C(=O)c2ccccc2S3)CC1 | -12% | x
CC1CC(C)CN(CC(O)COCCOc2ccc(Br)cc2)C1 (stereo not given) | -6% | -3%
COc1ccc(Br)cc1CNC(=O)CCCc1cn(C)c2ccccc12 | -4% | 19%
CC1OC(Oc2c(-c3cc(O)c(O)c(O)c3)oc3cc(O)cc(O)c3c2=O)C(O)C(O)C1O (stereo not given) | 2.2µM* | 0%
COc1ccc2[nH]cc(C(=O)CN3CCN(C(=O)c4ccco4)CC3)c2c1 | -3% | -6%
Brc1ccc2nc(-c3cccs3)c(NCC3CCCO3)n2c1 (stereo not given) | -9% | u
C(=N\Nc1nc2ccccc2s1)/c1ccccn1 | 0% | -3%
O=C(Nc1ccc(F)c([N+](=O)[O-])c1)C1CC(=O)N(Cc2ccccc2)C1 (stereo not given) | -4% | -3%
O=C(NNS(=O)(=O)c1ccccc1F)c1sccc1-n1cccc1 | 9% | 1%
O=C1[C@@H]2C(c3cccnc3)=NO[C@@H]2C(=O)N1c1ccc(Br)cc1 | 3% | 9%
CSc1cccc(NC(=O)c2ccccn2)c1 | x | -29%
CCOC(=O)C1CCN(C(=O)c2ccc3c(Cl)c4c(nc3c2)CCCC4)CC1 | -2% | -5%
CN(C)c1ccc(/C=N/NC(=O)C(O)(c2ccccc2)c2ccccc2)o1 | -9% | -1%
COc1ccc(NC(=O)/C(Cl)=C(/Cl)S(=O)(=O)Cc2ccccc2)cn1 | -16% | 4%
CN1c2ccccc2N(C)C1(C)c1ccccc1 | -13% | 8%
COc1cc(/C=C2\SC(=Nc3ccc(O)cc3)NC2=O)cc(OC)c1OC | -3% | -16%
COc1ccc(C)cc1NC(=O)CSc1ccc(Cl)cc1 | 1% | 19%
O=C(Nc1ccc(CN2CCOCC2)cc1)c1ccc(-c2ccc(Cl)cc2Cl)o1 | -5% | -23%
CCOCCCNCC(=O)Nc1ccc(S(=O)(=O)NC(C)CC)cc1 (stereo not given) | 3% | -13%
Cc1ccc2nc(-c3ccncc3)c(NC3CCCC3)n2c1 | 10% | -11%
CCOC(=O)CSc1cc(C)nc(N)n1 | -4% | 4%
COc1ccc2nc(NC(=O)c3cnccn3)sc2c1 | -11% | -1%

New compounds follow:
SMILES | FEN1 inh | N370S GC
O=S(=O)(Nc1ccc2nc(C(F)(F)F)[nH]c2c1)c1ccccc1 | 9% | -2%
CCOc1ccc(Oc2nc(Nc3ccc(C)cc3)nc(N(C)C)n2)nn1 | 7% | -7%
O=Cc1cccn1Cc1ccccc1[N+](=O)[O-] | -7% | -5%
Cc1ccc(N=Nc2c(O)ccc3n[nH]nc23)cc1 | 0% | -12%
CC(C)CNC(=O)C(=O)Nc1ccc(N(C)C)cc1 | -9% | -6%
COC(=O)[C@H](CCSC)NC(=O)c1cccnc1SC | 17% | -6%
CCN(C(=O)COC(=O)c1ccccc1Cc1ccccc1)C1CCS(=O)(=O)C1 (stereo not given) | -5% | -15%
CC1(C)CC2CC(C)(CN2C(=O)c2ccc([N+](=O)[O-])cc2[N+](=O)[O-])C1 (stereo not given) | -11% | 4%
O=C(CN(c1ccc2c(c1)OCCO2)S(=O)(=O)c1ccccc1)N1CCN(Cc2ccccc2)CC1 | -1% | -12%
CSc1ccc(-c2nc3ncccn3c2Nc2ccc(C)c(C)c2)cc1 | -28% | x
CCCCCCC(NC(=O)c1ccc(C)cc1)C(=O)O (stereo not given) | 14% | x
COC(=O)c1c(NC(=O)c2ccc(S(=O)(=O)N3CCCC(C)C3)cc2)sc2c1CCN(C(C)C)C2 (stereo not given) | 3% | x
Cn1cc(C(=O)N2CCCCC2)c(=O)c2cc(S(=O)(=O)N3CCCC3)ccc21 | -9% | 2%
N/C(=N\OC(=O)CCC1CCCC1)c1cccc([N+](=O)[O-])c1 | -3% | 3%
O=C(CSc1nc2ccccc2o1)N/N=C/c1ccccc1C(=O)O | 3% | -1%
CCC(Sc1ccc2nnc(-c3cccnc3)n2n1)C(=O)O (stereo not given) | -18%&-9% | -18%
OC[C@@H]1CC[C@@H](Cc2ccc(-c3ccccc3)cc2)O1 | -3% | x
CCC(CC)C(=O)Nc1nnc(SCc2cc(=O)c3ccccc3[nH]2)s1 | 5% | x
CC(=O)c1cccc(NC(=O)c2cc(-c3ccc4c(c3)OCCO4)on2)c1 | -4% | x
Cc1cccn2c(=O)c3cc(C(=O)NC4CCCC4)n(C)c3nc12 | u | u
O=C(NC1CCCCC1)c1ccc(OC2CCN(Cc3ccccn3)CC2)cc1 | -2% | -16%
CNc1ccccc1C(C)(C)c1cn(-c2ccc([N+](=O)[O-])cc2)nn1 | -5% | -19%
N#Cc1cccc(S(=O)(=O)Nc2c(NC3CCCCC3)c3ccccc3oc2=O)c1 | -16% | 6%
COC(=O)c1sccc1NC(=O)COc1ccc(Cl)cc1 | -3% | 5%
CSc1nc2nc(C(F)(F)F)cc(-c3ccccc3)n2n1 | -1% | 23%

Other compounds follow:
SMILES | FEN1 inh | N370S GC
Cc1cc(C)c(S(=O)(=O)Nc2ccc(-c3ccc(N4CCC(C)CC4)nn3)cc2)cc1C | 9% | x
CC1CCN(C(=O)CN2C(=O)C(=O)c3ccccc32)CC1 | -1% | 5%
Cn1cc(Cl)c(C(=O)N/N=C/c2ccc(OS(=O)(=O)c3ccccc3)cc2)n1 | -7% | 0%
CC(=O)NC(NC(C)=O)c1cccc(OCc2ccccc2)c1 | -6% | 3%
COc1ccc(NS(=O)(=O)c2cccc(C(=O)NCC(c3cccs3)N3CCOCC3)c2)cc1 (stereo not given) | -3% | x
COc1cc(NC(=O)c2nc(-c3ccc(Cl)cc3)n3c2CCCCC3)cc(OC)c1OC | -5% | x
COC(=O)c1cn(C)c2ccc(S(=O)(=O)N3CC(C)CC(C)C3)cc2c1=O (stereo not given) | 5% | 16%
COc1ccc(/C=C/C(=O)OCc2cccc([N+](=O)[O-])c2)cc1 | -20% | 17%
Cc1sc(N2C(=O)C3C4C=CC(C4)C3C2=O)c(C#N)c1C (stereo not given) | -11% | 11%
CCC(C)(C)n1nnnc1C(c1ccc(C)cc1)N(Cc1ccco1)Cc1cccs1 (stereo not given) | -12% | 11%
CCn1cc(C(C)(C)C)c(C#N)c1NC(C)=O | 3% | 9%
CC1=NN(C(=O)CCc2ccc3c(c2)OCO3)C(O)(C(F)(F)F)C1 (stereo not given) | 19% | 5%
O=C(O)CCc1nc2cc(Cl)ccc2n(Cc2ccccc2)c1=O | 3% | -2%
COC(=O)C(Cc1ccccc1)NC(=O)CNC(=O)c1ccc(Br)o1 (stereo not given) | -3% | x
Cc1cccc(NC(=O)c2nc[nH]c2C(=O)N[C@@H](CC(C)C)C(=O)OCc2ccccc2)c1 | -26% | 19%
CN(C)c1ccc(C(=O)N/N=C/c2ccccn2)cc1 | 7% | -8%
CCc1cc(C(=O)OC)c(NC(=O)CCC(=O)O)s1 | -4% | 1%
CCOC(=O)c1c(-c2cccc3ccccc23)csc1NC(=O)C1C2CCC(O2)C1C(=O)O (stereo not given) | -3% | 10%
CCCC[C@@H]1C=C(C(=O)O)[C@H](c2ccc(C)cc2)N1S(=O)(=O)c1ccc(C)cc1 | -9% | x
COc1ccc(N2Cc3cccc(C(=O)NC(C)CCc4ccco4)c3C2=O)cc1 (stereo not given) | u | 6%
Cc1nnc(NC(=O)CSc2nnc3c(n2)[nH]c2ccc(Br)cc23)s1 | -3% | 0%
Cc1ccc(C)c(OCCn2cc(C(=O)c3cccs3)c3ccccc32)c1 | -3% | x
CCCCC1=C(C(=O)OCC)C(C(=O)OCC)Oc2ccccc21 (stereo not given) | 14% | 4%[89.1 µM]
Cc1nn(C)cc1NC(=O)c1cc2nc(-c3ccco3)cc(C(F)(F)F)n2n1 | 4% | 4%
Cc1c(C(=O)O)oc2c1/C(=N\O)CCC2 | -6% | 0%
COc1ccccc1NS(=O)(=O)c1cccc(NC(=O)Nc2ccc(Cl)cc2)c1 | -28% | 17%
Cc1ccc(NC(=O)CN(C)C(=O)CCOc2ccccc2C)cc1 | 11% | 5%
O=C(Nc1nc2c(Br)cc(Br)cc2c(=O)s1)C1CCC1 | 17% | 3%

Of the compounds above, 14 contain an aryl thioether with sulfur outside any ring.
SMILES | FEN1 inh | N370S GC
C=CCn1c(SCc2c(C)noc2C)nc2sc3c(c2c1=O)CCCCC3 | -17% | 30%
O=C(O)c1ccccc1CSc1ccccn1 | -1% | -6%
COc1cc(SC)ccc1C(=O)Nc1nccs1 | -25% | -5%
CCOc1ccc2nc(SCC(=O)Nc3cc(C)on3)c(C)cc2c1 | -7% | -2%
CSc1cccc(NC(=O)c2ccccn2)c1 | x | -29%
COc1ccc(C)cc1NC(=O)CSc1ccc(Cl)cc1 | 1% | 19%
CCOC(=O)CSc1cc(C)nc(N)n1 | -4% | 4%
COC(=O)[C@H](CCSC)NC(=O)c1cccnc1SC | 17% | -6%
CSc1ccc(-c2nc3ncccn3c2Nc2ccc(C)c(C)c2)cc1 | -28% | x
O=C(CSc1nc2ccccc2o1)N/N=C/c1ccccc1C(=O)O | 3% | -1%
CCC(Sc1ccc2nnc(-c3cccnc3)n2n1)C(=O)O (stereo not given) | -18%&-9% | -18%
CCC(CC)C(=O)Nc1nnc(SCc2cc(=O)c3ccccc3[nH]2)s1 | 5% | x
CSc1nc2nc(C(F)(F)F)cc(-c3ccccc3)n2n1 | -1% | 23%
Cc1nnc(NC(=O)CSc2nnc3c(n2)[nH]c2ccc(Br)cc23)s1 | -3% | 0%
